Screening results (PubChem BioAssay)
RN4220 kill – growth inhibition of S. aureus RN4220, primary screen, OD600; 16 h; inhibition, % (concentration not given with the values); 330,000 compounds, 0.33% hits;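 active = z-score of -3 or lower and OD600 up to 0.18 on both plates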;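 also: plate controls were untreated cells for no effect and reference antibiotic for full effect; stock transfer was 100 nL into about 80 µL; one replicate is shown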
Mtb hypoxia inh – PubChem AID 1159583; M. tuberculosis hypoxia-regulated fluorescent reporter, fluorescence; fluorescence inhibition, % (test concentration not listed); 300,000 compounds, 0.1% hits;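 active = 35 to 45% if threefold the growth effect, above 45% if 1.5-fold the growth effect; inactive = the rest, general growth blockers included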;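 also: wells of about 50 µL received 100 nL stock; 0% = vehicle wells and 100% = reference inhibitor wells; whole bacteria with a GFP reporter of the hypoxia response; strong numbers were not always called active; many hits fall short of the cut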
BJeLR viability – MLPCN primary cell-based screen for lethality selective to Ras in HRASV12 cells. BJeLR (HRASV12) viability, CellTiter-Glo ATP luminescence, 48 h; reference of the scale not given here. inhibition, % (test concentration not listed). 300,000 compounds, 0.17% hits;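 active = replicate mean above 50%; inconclusive = above 50% but judged a plate artefact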;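 also: 50 nL library stock added to about 25 µL; numbers are from one replicate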
PrP 5UTR inh – inhibition of PrP 5' UTR reporter expression; cell-based PrP 5' UTR mRNA reporter, plate reader; inhibition, % (test concentration not listed); 340,000 compounds, 0.35% hits; AID 488862, 2010;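 active = every replicate at 50% or more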;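 also: 0 = median of the neutral control wells; tested in H4 reporter cells; numbers are from one replicate; inactives centre near -14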
Autofluor counter – compound fluorescence in toxin protease inhibitor counterscreen; compound autofluorescence counterscreen, microsphere flow cytometry; active compounds read high; fluorescence intensity (test concentration not listed); 360,000 compounds, 3.1% hits; AID 624483;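 active = at least 3 SD above the mean of all compounds, about 16000 in these data; inconclusive = too few beads counted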;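 also: 100 nL of 1 mM stock went into each well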
ugtP null kill – growth inhibition of ugtP-null S. aureus, primary screen, RN4220 ugtP deletion, OD600; 16 h; some inactives read as strong as hits; growth inhibition, % (no concentration beside the values); 330,000 compounds, 0.54% hits; AID 1259309, 2017;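 active = z-score under -3 and OD600 up to 0.15 on both plates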;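 also: plate controls were untreated wells for no effect and antibiotic for full effect; wells of about 80 µL received 100 nL stock; the first replicate is given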
Mtb hypoxia inh growth – recorded beside Mtb hypoxia inh, whose call it bears; growth inhibition, %; measured here: M. tuberculosis growth (absorbance);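 0% = vehicle and 100% = reference antibiotic; read after six days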
Starred values were filed as active, the others as inactive; ? = inconclusive; · = not tested or not shown. This is a random part of the collection; about 4% have a hit in one of these screens.

SMILES | RN4220 kill | Mtb hypoxia inh | Mtb hypoxia inh growth | BJeLR viability | PrP 5UTR inh | Autofluor counter | ugtP null kill
CC(C)NC(=O)CC(=O)NN=Cc1cccs1 | -1.0 | -5 | 8 | · | · | · | 1
CC(=NCCc1ccccc1)C1=C(O)COC1=O | 3.7 | · | · | 2 | -26 | 3672 | -2
O=C(CSc1ccccn1)N1CCN(c2cccc(Cl)c2)CC1 | 1.7 | 14 | 15 | 4 | -14 | 9783 | -2
O=C(NCCCN1CCOCC1)c1ccc2ccccc2c1 | 6.4 | 7 | -3 | -2 | -17 | 5407 | 6
CCOc1ccc(NC(=O)CN(C)CC(=O)Nc2ccc(Br)cc2F)cc1OCC | -1.5 | 9 | 5 | -6 | -9 | 4170 | -70
C=CCNC(=O)N1C2=NC(C(=O)OC)=C(C(=O)OC)[C@@H]3N(Cc4ccccc4)c4ccccc4[C@]23C[C@H]1C(=O)OC | · | · | · | 7 | -15 | 3565 | ·
CC1CN(C(=O)c2ccc(-c3cccc(C(F)(F)F)c3)o2)CC(C)O1 (centres undefined) | 4.0 | -9 | -3 | 5 | -6 | ? | 2
COc1ccc2nc(-c3ccccc3)cc(C(=O)N3CCC3)c2c1 | -2.9 | -8 | -11 | · | -10 | 3470 | -11
COc1ccc(/C=C2/C(=O)NC(=O)N(c3ccc(C)c(C)c3)C2=O)cc1CN1C(=O)c2ccccc2C1=O | 3.7 | 0 | 4 | 6 | -11 | 2147 | 10
CCN(CC)P(=O)(Nc1cccc(C(F)(F)F)c1)c1ccc(N(C)C)cc1NC(=O)c1ccco1 (centres undefined) | 2.4 | 4 | 5 | -2 | -10 | 4603 | 8
Clc1ccc2nc(CN3CCCCCC3)cn2c1 | 3.4 | 8 | 1 | 7 | -9 | ? | 3
O=C(CCc1ccc(S(=O)(=O)NCc2ccccc2)cc1)NCC1CCCO1 (centres undefined) | 7.4 | -3 | 6 | -1 | -13 | 2118 | 2
O=C(NCCc1ccccc1)c1c[nH]c2ccc(F)cc2c1=O | 6.8 | 8 | 8 | · | -20 | 4636 | -6
CC(C)(C)c1cc(CCC(=O)NNC(=O)c2ccco2)cc(C(C)(C)C)c1O | 1.8 | -4 | 5 | -4 | -14 | 2691 | -1
S=c1[nH]nc(NCCc2ccccc2)s1 | 0.8 | -8 | -2 | 12 | -41 | 2531 | 9
O=C(CCN1C(=O)C2C3C=CC(C3)C2C1=O)Nc1ccc2ncccc2c1 (centres undefined) | 2.6 | 9 | 11 | -1 | 18 | 2741 | 6
COc1cc2c(C(=O)O)c(C)n(C)c2c2ccccc12 | 6.6 | -5 | 1 | -1 | -25 | 3802 | -3
O=c1c(Cc2c(F)cccc2Cl)c(O)ccn1CCc1ccccn1 | 3.3 | -9 | 9 | -14 | 2 | 4292 | 7
CCCNC(=O)Nc1ccc(C(F)(F)F)cc1 | 0.2 | -2 | 12 | -1 | -25 | 2343 | -4
Cc1ccc(CN2C(=NC(=O)CCC(=O)O)SC3CS(=O)(=O)CC32)cc1 (centres undefined) | 0.6 | 16 | 11 | -2 | -20 | 3982 | -6
COC(=O)c1ccc2c(=O)[nH]c(CSc3nnc(C(F)(F)F)n3C)nc2c1 | 0.0 | 9 | 5 | -15 | -27 | 2072 | 2
O=C(NCCN1CCOCC1)c1ccc2c(c1)N(Cc1c(F)cccc1Cl)C(=O)c1ccccc1S2 | 0.7 | 0 | 6 | -8 | -7 | 2657 | 6
Cc1cc([N+](=O)[O-])ccc1NCc1ccc2ccccc2c1 | -5.6 | -5 | 10 | -2 | -8 | 6357 | 5
CSCC(=O)N1CCC(n2nccc2NC(=O)CCc2ccccc2)CC1 | 1.7 | 6 | 3 | -4 | 0 | 5603 | 5
CCCCN(C(=O)c1[nH]c(C)c(C(=O)OCC)c1C)c1c(N)n(CCCC)c(=O)[nH]c1=O | 0.7 | -10 | -1 | -1 | -4 | 6332 | 3
COC(=O)Cc1n[nH]c(=O)c2ccccc12 | 3.0 | 21 | 12 | -5 | -18 | 8014 | 7
COc1ccc(C(O)C(CC(=O)NCCCOC(C)C)C(=O)NCCCOC(C)C)cc1OC (centres undefined) | 3.1 | -4 | 9 | 3 | -54 | 3395 | 0
CC(=O)N1C(=O)C(=C2C=C(C)OC(C)=C2)c2ccccc21 | 5.1 | 12 | 4 | -9 | -4 | 23162* | 3
CCN1CCC2(CC1)C(C#N)=C(N)Oc1c2sc2nc(C)cc(C)c12 | 0.1 | · | · | -5 | -9 | 4863 | 11
CCCc1[nH]nc2c1C(/C(C)=C/c1ccccc1)C(C#N)=C(N)O2 (centres undefined) | 8.9 | 17 | 7 | -3 | -65 | 8374 | 3
CC(C)n1nccc1NS(=O)(=O)c1ccccc1 | 9.5 | 5 | 4 | · | -7 | 4702 | 5
Cc1cccc(NC(=O)NCCc2c[nH]c3ccccc23)c1 | -3.2 | 8 | -4 | 6 | -33 | 4107 | -12
Cc1nc2nc(SCC(=O)O)nn2c(C)c1Cc1c(F)cccc1Cl | 11 | 7 | 5 | -4 | -15 | 4462 | 20
COCCN1C(=O)c2oc3ccccc3c(=O)c2C1c1cccc(O)c1 (centres undefined) | -3.5 | · | · | -3 | -3 | 5033 | -5
Cc1cc2c(cc1S(=O)(=O)Nc1c(C)cccc1C)n(C)c(=O)c(=O)n2C | 9.1 | · | · | 9 | -40 | 5983 | 11
COc1c(S(=O)(=O)N2CCN(c3ccc(F)cc3)CC2)ccc(Cl)c1Cl | -2.4 | -4 | 4 | -8 | -20 | ? | 6
O=C(NN=Cc1ccc(C(F)(F)F)cc1)c1ccc(O)cc1 | 1.4 | 4 | 1 | · | · | · | 0
COc1ccc(NC(=S)Nc2ccccc2F)c(OC)c1 | 5.0 | 8 | 5 | 21 | -23 | 2832 | 4
CC(C)CCn1c(S(=O)(=O)O)nc2ccccc21 | -15 | 3 | -2 | -10 | -16 | 3528 | -7
CCCCn1c(SCC(N)=O)nc2ccc(N3CCOCC3)cc2c1=O | 3.2 | 8 | 7 | -2 | -25 | 10333 | 2
CC1(C)CC2CC(C)(CN2/C=C2/CCCCC2=O)C1 (centres undefined) | 1.0 | 0 | -4 | 13 | 1 | 6471 | -2
CC(C)(C)NC(=O)C(OC(=O)c1ccco1)c1ccc(Cl)cc1 (centres undefined) | 3.6 | 9 | -3 | 0 | -24 | 4144 | -3
CCOc1cc(CNCCO)c(Cl)cc1OCC(=O)NCCc1ccccc1 | 3.8 | 10 | 6 | -1 | -19 | 11652 | 6
NC(=O)C1CCN(CC(=O)Nc2ccc3c(c2)OCCO3)CC1 | 6.4 | 2 | -1 | · | -7 | 4683 | 4
COc1ccc(CCn2c(C(C)C)nc3c(c(=O)c4ccccc4n3C)c2=O)cc1 | 1.6 | -14 | 6 | · | -4 | 2666 | -8

Whole records from above.
COc1ccc(C(O)C(CC(=O)NCCCOC(C)C)C(=O)NCCCOC(C)C)cc1OC (centres undefined) reads RN4220 kill: 3.1; Mtb hypoxia inh: -4; Mtb hypoxia inh growth: 9; BJeLR viability: 3; PrP 5UTR inh: -54; Autofluor counter: 3395; ugtP null kill: 0
O=C(CCc1ccc(S(=O)(=O)NCc2ccccc2)cc1)NCC1CCCO1 (centres undefined) reads RN4220 kill: 7.4; Mtb hypoxia inh: -3; Mtb hypoxia inh growth: 6; BJeLR viability: -1; PrP 5UTR inh: -13; Autofluor counter: 2118; ugtP null kill: 2

(cont.)
SMILES | RN4220 kill | Mtb hypoxia inh | Mtb hypoxia inh growth | BJeLR viability | PrP 5UTR inh | Autofluor counter | ugtP null kill
COc1ccc(/C=C2/C(=O)NC(=O)N(c3ccccc3)C2=O)cc1CN1C(=O)c2ccccc2C1=O | -2.1 | -3 | 5 | 8 | -12 | 4660 | 0
CCc1ccc(NC(=O)C2CCN(S(=O)(=O)c3ccc4c(c3)NC(=O)CO4)CC2)cc1 | 0.5 | -3 | -5 | 1 | -6 | 4737 | 9
Cc1ccc(C(=O)NNC(=O)c2ccc(NS(=O)(=O)c3cccs3)cc2)s1 | 3.2 | 4 | 6 | 2 | -19 | ? | 2
O=[N+]([O-])c1ccc(C2CCCC/C2=N/OCc2ccccc2F)c([N+](=O)[O-])c1 (centres undefined) | · | · | · | 2 | -20 | 4288 | ·
Cc1nn(Cc2ccccc2)c(=O)c2nn(-c3ccc(Cl)cc3)c(C)c12 | 2.2 | 5 | 2 | -13 | -14 | 9714 | -9
COCCCN1C(=O)c2ccc(C(=O)Nc3ccc(OC)cc3OC)cc2C1=O | 1.0 | · | · | 0 | -24 | 2351 | 2
N/C(=N\c1nc2ccccc2o1)NC(=O)C(Cc1ccccc1)N1C(=O)c2ccccc2C1=O (centres undefined) | -15 | 6 | 8 | -3 | -19 | 3362 | 9
Cc1nc2ccccc2cc1C(=O)NN=Cc1cccc([N+](=O)[O-])c1 | 1.0 | -4 | -1 | · | · | · | 10
Cc1cn(-c2ccccc2)c(C)c1/C=N\Nc1nc(N2CCOCC2)nc(N2CCOCC2)n1 | · | · | · | 0 | -11 | 2196 | ·
O=C(NCc1cccnc1)C1c2ccccc2C(=O)N1C1CCCCCC1 (centres undefined) | 6.3 | 8 | 3 | -2 | -6 | 10529 | 0
COC1=CC(=Cc2c(N)n3nc(CC(=O)N4CCCCC4)sc3nc2=O)C=C(OC)C1=O | · | · | · | 0 | -28 | 6451 | ·
CC1CCCCC12NC(=O)N(CC(=O)OCC(=O)Nc1ccc(F)cc1[N+](=O)[O-])C2=O (centres undefined) | 5.0 | 4 | 6 | · | 3 | 3489 | 8
Cc1cc(Br)ccc1SCC(=O)N1CCN(S(=O)(=O)c2ccccc2)CC1 | 16 | 4 | 9 | 0 | -3 | 5506 | 72
O=S(=O)([O-])CCC[n+]1c(SCCCS(=O)(=O)O)sc2ccc(Cl)cc21 | 5.0 | 6 | 8 | -2 | -12 | 2068 | 5
O=C(O)CN(c1ccccc1[N+](=O)[O-])S(=O)(=O)c1ccccc1 | 0.8 | 8 | 4 | -5 | -24 | 3974 | 7

Next part; the last 7 above are carried over.
SMILES | RN4220 kill | Mtb hypoxia inh | Mtb hypoxia inh growth | BJeLR viability | PrP 5UTR inh | Autofluor counter | ugtP null kill
Cc1cn(-c2ccccc2)c(C)c1/C=N\Nc1nc(N2CCOCC2)nc(N2CCOCC2)n1 | · | · | · | 0 | -11 | 2196 | ·
O=C(NCc1cccnc1)C1c2ccccc2C(=O)N1C1CCCCCC1 (centres undefined) | 6.3 | 8 | 3 | -2 | -6 | 10529 | 0
COC1=CC(=Cc2c(N)n3nc(CC(=O)N4CCCCC4)sc3nc2=O)C=C(OC)C1=O | · | · | · | 0 | -28 | 6451 | ·
CC1CCCCC12NC(=O)N(CC(=O)OCC(=O)Nc1ccc(F)cc1[N+](=O)[O-])C2=O (centres undefined) | 5.0 | 4 | 6 | · | 3 | 3489 | 8
Cc1cc(Br)ccc1SCC(=O)N1CCN(S(=O)(=O)c2ccccc2)CC1 | 16 | 4 | 9 | 0 | -3 | 5506 | 72
O=S(=O)([O-])CCC[n+]1c(SCCCS(=O)(=O)O)sc2ccc(Cl)cc21 | 5.0 | 6 | 8 | -2 | -12 | 2068 | 5
O=C(O)CN(c1ccccc1[N+](=O)[O-])S(=O)(=O)c1ccccc1 | 0.8 | 8 | 4 | -5 | -24 | 3974 | 7
C=CCN=C(NC#N)SCCc1ccccc1 | 1.0 | 8 | 6 | -6 | -20 | 20089* | 0
CSC1=C(C#N)C(c2ccccc2Cl)C2=C(N1)c1ccccc1C2=O (centres undefined) | 3.2 | 4 | 0 | -5 | -23 | · | -8
CN1c2ccccc2C2(C)CCCC3=Cc4cccc([N+](=O)[O-])c4OC312 (centres undefined) | 3.9 | 22 | 0 | 3 | -4 | 1904 | -8
NC(=O)c1cn(C2CCCCC2)c2ccccc2c1=O | 1.3 | 6 | 5 | 12 | -41 | 3613 | 12
CC(Cc1ccccc1)NCCC(=O)NC(C)Cc1ccccc1 (centres undefined) | 0.0 | 8 | 5 | 6 | 7 | 3112 | 8
